# Screening data (PubChem)
# CSC inhib: cancer stem cell inhibition. cancer stem cell-like cells viability, luminescence. inhibition, % at 7.5 µM. 1.1% of 300,000 active. AID 2717;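 active = mean at 75% or more and at least half the replicates too; tested in HMLE shEcad cells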;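 note: 0% = median of negative and 100% = median of positive control wells; the first replicate is given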
# eIF4H inh: inhibitors of RNA binding by human eIF4H. Q15056. eIF4H fluorescence polarization binding assay. inhibition, % at 35 µM. 0.94% of 290,000 active;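 active = 50% or more with normal probe brightness, or confirmed in later tests; about a fifth of its hits are not listed in these tables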;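 note: calls also rest on retests at 20 µM and on dose response follow-up; 0% = protein and probe with vehicle and 100% = probe without protein; strong numbers were not always called active; many hits fall short of the cut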
# Env fusion inh: HIV envelope-mediated fusion inhibition | inhibition, % at 12.3 µM | AID 651610 | 1.1% of 360,000 active | HeLa-JRFL Env/CEM21 cell fusion, luciferase;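 active = mean replicate inhibition score of at least 50 and every replicate individually at or above 50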;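 note: 0% = plate neutral controls and 100% = maraviroc near 300 nM; one replicate is shown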
# MT1-MMP act inh: MT1-MMP (human) activation inhibition; 0.061% of 360,000 active; P50281; GFP/RFP ratio change, % at 20 µM; HT1080 RFP-PRO-GFP cells, GFP/RFP ratio fluorescence, overnight; percent of plate control window, DMSO zero;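 active = GFP/RFP ratio change of at least 30% with cell ATP level not reduced by more than half and red fluorescence within 50% of control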; note: strong numbers were not always called active
#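 Assay system: HT1080 cells carrying an RFP-PRO-GFP reporter | Dosing: Single dose of 20 µM compound, 1% DMSO final | Incubation: Cells overnight before dosing, compound overnight, 37 °C, 5% CO2 | Evaluation: GFP/RFP fluorescence ratio | Control set: DMSO and RFP-L50D-GFP cell wells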
# PABP FP inh: PABP-poly(A) binding inhibition; PABP-poly(A) RNA binding, fluorescence polarization; 1% of 290,000 active; inhibition, % at 35 µM; P11940; AID 2014;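 active = 50% or more with normal probe brightness, or confirmed in later tests; about a fifth of its hits are not listed in these tables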;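 note: calls also rest on retests at 20 µM and on dose response follow-up; controls were probe without protein and protein plus probe with vehicle; some compounds called inactive have numbers as strong as hits; many hits fall short of the cut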
# Target sequence (P11940 whole entry, looked up): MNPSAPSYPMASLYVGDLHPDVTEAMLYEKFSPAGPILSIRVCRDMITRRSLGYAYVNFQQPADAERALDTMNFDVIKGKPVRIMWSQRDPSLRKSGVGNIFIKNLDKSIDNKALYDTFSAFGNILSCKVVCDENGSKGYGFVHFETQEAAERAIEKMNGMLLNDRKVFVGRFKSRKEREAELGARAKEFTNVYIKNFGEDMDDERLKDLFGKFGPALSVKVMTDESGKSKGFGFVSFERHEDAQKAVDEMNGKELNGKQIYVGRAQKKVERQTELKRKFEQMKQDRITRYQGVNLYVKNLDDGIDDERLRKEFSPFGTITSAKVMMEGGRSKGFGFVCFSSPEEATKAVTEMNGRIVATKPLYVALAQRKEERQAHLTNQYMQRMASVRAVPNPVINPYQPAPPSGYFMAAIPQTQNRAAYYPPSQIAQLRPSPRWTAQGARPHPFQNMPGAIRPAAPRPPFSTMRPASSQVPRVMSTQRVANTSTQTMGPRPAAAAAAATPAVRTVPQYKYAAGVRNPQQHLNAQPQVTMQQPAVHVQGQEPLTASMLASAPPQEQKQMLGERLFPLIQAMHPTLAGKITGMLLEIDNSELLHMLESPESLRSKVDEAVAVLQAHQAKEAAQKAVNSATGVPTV
# UUG fidelity: modulators of start codon recognition fidelity in yeast | 0.13% of 350,000 active | AID 602363 | activity score, % at 18.7 µM | S. cerevisiae UUG-firefly luciferase reporter, luminescence/redox ratio;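 active = replicate mean at a twofold rise or more, about +100% in these data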;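 note: firefly luciferase made from a UUG start codon reports start codon fidelity; reporter light over untreated wells divided by growth signal over untreated wells; some hits fall short of that in this replicate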
# Rce1 inh: inhibitors of yeast Ras-converting enzyme | Q03530 | AID 2563 | yeast membranes, quenched prenylated peptide cleavage fluorescence | 0.27% of 290,000 active | calls only;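 active = fall in fluorescence gain of 50% or more versus controls, with final raw signal at or below 3038400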;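 note: plate controls were neutral control wells for no effect and wells lacking membranes for full effect; tested at 10 µM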
# Target sequence (Q03530 whole entry, looked up): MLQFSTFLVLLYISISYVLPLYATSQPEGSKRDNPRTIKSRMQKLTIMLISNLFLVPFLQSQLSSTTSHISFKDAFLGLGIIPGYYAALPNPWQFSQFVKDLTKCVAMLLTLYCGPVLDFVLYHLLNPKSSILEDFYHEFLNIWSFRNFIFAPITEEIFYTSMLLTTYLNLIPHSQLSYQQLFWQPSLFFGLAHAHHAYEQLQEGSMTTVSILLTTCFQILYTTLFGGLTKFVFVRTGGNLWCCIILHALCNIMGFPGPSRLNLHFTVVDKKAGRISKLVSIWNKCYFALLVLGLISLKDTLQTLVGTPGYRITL
# eIF4H inh retest: also measured in eIF4H inh; calls as there; inhibition, %; compound at 20 µM; confirmation average;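 mean of two retest wells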
# PABP FP inh retest: also measured in PABP FP inh; calls as there; inhibition, %; compound at 20 µM; confirmation repeats;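 mean of two retest wells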
# MT1-MMP act inh RFP: further read-out of MT1-MMP act inh, marked with its call; RFP signal change, %; measured here: RFP expression control read;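 0 = vehicle wells; hits needed this value within 50% of zero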
# * marks the source's active call; other numbers are inactive results; i = inactive; . = not tested or not shown. These rows are one share of the data. The share of hits here may be higher or lower than overall.
SMILES,CSC inhib,eIF4H inh,Env fusion inh,MT1-MMP act inh,MT1-MMP act inh RFP,PABP FP inh,UUG fidelity,Rce1 inh,others
N#Cc1ccccc1Cn1c(=O)oc2ccccc21,-10.4,3.6,-3.6,-2.0,-0.1,9.9,10.6,i,
O=C(Nc1ccccc1)OCc1cncs1,-3.1,0.1,-17.1,-1.3,-0.3,7.0,-11.5,i,
Cc1occc1C(=O)N1CCCc2ccccc21,0.0,-1.6,.,-7.4,0.8,6.0,-0.6,i,
CCc1nc2ccc(C(=O)NCCc3ccccn3)cn2c1N(C)Cc1nccs1,.,.,-9.9,0.3,2.6,.,-20.5,.,
Cc1ccc(S(=O)(=O)N2CCOCC2)cc1C(=O)OCC(=O)NCCc1ccc(F)cc1,2.9,.,.,2.3,-2.6,.,8.9,.,
N#CC1CC(c2ccccc2)=NN1c1ccccc1[N+](=O)[O-] (configuration not stated),-3.8,1.6,-22.2,2.9,2.3,8.3,.,i,
COc1cc(C(O)c2nc3ccccc3n2C)cc(OC)c1OC (configuration not stated),-4.6,-9.3,.,0.8,-4.4,-12.2,-25.1,i,
Cc1ccc(S(=O)(=O)NC(CC(C)C)C(=O)Nc2ccncc2)cc1 (configuration not stated),-3.3,.,.,1.0,-3.6,.,.,i,
COc1cccc(C(c2nnnn2C2CCCCC2)N2CCN(C/C=C/c3ccccc3)CC2)c1OC (configuration not stated),.,.,-26.8,-1.4,-5.5,.,5.9,.,
Cc1cccc(NC(=O)Cn2c([N+](=O)[O-])cnc2C)c1C,-3.3,-4.3,.,.,.,-11.9,.,i,
O=C(NCC(c1cccnc1)N1CCN(c2ccc(F)cc2)CC1)c1ccco1 (configuration not stated),1.1,-4.4,4.9,24.2,-12.7,2.0,-7.2,i,
COc1ccc(C(=O)NC2CC(C)(C)NC(C)(C)C2)cc1S(=O)(=O)N1CCOCC1,.,.,2.7,-2.2,6.2,.,-9.3,.,
O=S(=O)(c1ccc(NC(=S)N2CCN(c3ccc(O)cc3)CC2)cc1)N1CCOCC1,.,-5.8,17.6,0.3,-4.2,-3.3,-19.7,i,
COc1ccc(CN/C(C)=C(/C#N)C(N)=O)cc1OC,-5.2,29.9,-20.4,2.6,2.4,25.0,-20.8,i,
OCC1(Cc2ccccc2)CCN(Cc2cccc(F)c2F)CC1,8.4,-5.2,-10.0,-1.9,-2.3,-5.4,.,i,
Cc1ccc2nc(NCCC(=O)O)nc(-c3ccccc3)c2c1,.,3.4,15.0,-2.7,3.5,-12.0,-28.5,i,
Cc1c(Cl)cnc(NC(=O)COC(=O)CCC(=O)c2cccs2)c1Cl,.,8.8,-25.8,-5.6,0.6,8.7,.,i,
Cc1ccc(N2CCN(/N=C/C=C/c3ccccc3)CC2)cc1,6.2,-9.1,-15.2,-0.3,-0.8,4.7,-7.7,i,
CCCC(NC(=O)Cc1c(C)c2cc3c(C)c(C)oc3c(C)c2oc1=O)C(=O)N[C@@H](Cc1ccccc1)C(=O)O (some centres not stated),-4.9,7.5,.,1.7,2.9,2.9,-15.2,i,
O=C(CCSCCC(=O)NCc1ccc(F)cc1)NCc1ccc(F)cc1,-3.9,-2.2,-9.8,-2.2,1.7,-2.7,.,i,
COc1cc(NS(=O)(=O)c2ccc(NC(=O)c3ccc(Cl)cc3Cl)cc2)ncn1,-6.6,-11.4,-4.1,7.0,7.6,-4.0,2.4,i,
O=C(O)[C@@H]1CCCN1S(=O)(=O)c1cccc(S(=O)(=O)N2CCC[C@H]2C(=O)O)c1,16.6,-2.8,-8.9,-1.3,5.0,5.2,1.1,i,
Cc1ccc(NC(=O)COC(=O)CN2C(=O)NC3(CCCC3)C2=O)cc1S(=O)(=O)N(C)C,-3.1,6.6,11.4,1.9,2.2,3.0,1.8,i,
C=CCSC(=S)Nc1c(C)n(C)n(-c2ccccc2)c1=O,7.0,-10.9,5.4,-2.4,2.9,-0.8,.,i,
Cc1cccc(OCCOc2ccc(/C=N/NC(=O)Cc3nnc(N)s3)cc2)c1,-2.0,-8.7,.,1.2,0.5,-1.9,.,i,
NC(CC(=O)O)c1cccc(OCc2ccccc2)c1 (configuration not stated),-7.8,-12.7,.,6.9,7.0,-0.7,-16.3,.,
O=C1CCN(Cc2ccccc2)CCN1CCOc1ccccc1,10.9,-9.3,1.3,-2.3,2.4,-9.2,-7.8,i,
CCOC(=O)c1cnc(-c2ccccc2)nc1N(C)C,-5.6,-7.1,-34.6,0.1,2.9,2.6,-14.8,i,
Cc1ccc(C(=O)C(C)OC(=O)c2ccccc2[N+](=O)[O-])cc1 (configuration not stated),-7.6,5.1,-273.8,-4.9,0.1,-1.0,.,i,
COc1ccc(/C=C/C(=O)c2ccc(C)c([N+](=O)[O-])c2)cc1O,10.0,-1.2,-40.3,6.7,1.5,-11.5,-5.1,i,

# Entries shown so far that contain an aryl methoxy group:
SMILES,CSC inhib,eIF4H inh,Env fusion inh,MT1-MMP act inh,MT1-MMP act inh RFP,PABP FP inh,UUG fidelity,Rce1 inh,others
COc1cc(C(O)c2nc3ccccc3n2C)cc(OC)c1OC (configuration not stated),-4.6,-9.3,.,0.8,-4.4,-12.2,-25.1,i,
COc1cccc(C(c2nnnn2C2CCCCC2)N2CCN(C/C=C/c3ccccc3)CC2)c1OC (configuration not stated),.,.,-26.8,-1.4,-5.5,.,5.9,.,
COc1ccc(C(=O)NC2CC(C)(C)NC(C)(C)C2)cc1S(=O)(=O)N1CCOCC1,.,.,2.7,-2.2,6.2,.,-9.3,.,
COc1ccc(CN/C(C)=C(/C#N)C(N)=O)cc1OC,-5.2,29.9,-20.4,2.6,2.4,25.0,-20.8,i,
COc1cc(NS(=O)(=O)c2ccc(NC(=O)c3ccc(Cl)cc3Cl)cc2)ncn1,-6.6,-11.4,-4.1,7.0,7.6,-4.0,2.4,i,
COc1ccc(/C=C/C(=O)c2ccc(C)c([N+](=O)[O-])c2)cc1O,10.0,-1.2,-40.3,6.7,1.5,-11.5,-5.1,i,

# The list continues:
SMILES,CSC inhib,eIF4H inh,Env fusion inh,MT1-MMP act inh,MT1-MMP act inh RFP,PABP FP inh,UUG fidelity,Rce1 inh,others
Cc1cc(C)c(Cn2ncn(-c3ccc(Br)cc3)c2=O)c(C)c1,-18.0,-7.1,5.3,1.2,-5.4,11.6,.,i,
CN(C)c1ccc(C(=O)OCC(=O)N2CCCCCC2)cc1,-7.2,-1.2,-3.7,2.6,-0.6,-0.4,-9.2,i,
CCOc1ccc(OCCC(=O)OCC(=O)NC2CCCCC2)cc1,-3.7,5.9,.,-1.5,2.3,1.5,-3.8,i,
O=c1[nH]c(/C=C/c2ccccc2OC(F)F)nc2c1cnn2-c1ccccc1,.,-12.5,-10.8,2.8,-0.1,2.3,.,i,
Cc1ccc(C(=O)CSc2nc(-c3ccccc3)ccc2C#N)cc1,84.4*,5.3,4.0,-119.0,0.1,8.0,-21.3,i,
CC(CC(=O)O)NCC1COc2ccccc2O1 (configuration not stated),11.5,.,-2.4,5.1,-1.3,.,-7.5,.,
O=C(COC(=O)c1ccco1)NCc1ccc2c(c1)OCO2,-5.6,2.4,11.1,0.9,6.0,-5.5,-20.2,i,
O=C(Nc1cccc(-c2ccc(N3CCOCC3)nn2)c1)c1ccc([N+](=O)[O-])cc1,-3.2,.,-74.0,5.5,-1.0,.,16.9,i,
CCN1CCN(CC(=O)N/N=C/c2cc(Br)cs2)CC1,2.1,-1.4,10.4,0.5,3.0,7.4,-12.8,.,
CC(NS(=O)(=O)c1ccc(OCC(=O)N2CCCC2)cc1)c1ccccc1 (configuration not stated),-4.7,14.3,-5.2,-0.4,1.6,3.3,-10.2,.,
COc1ccc(CCNC(=O)CSc2nc3c(c(=O)n(C)c(=O)n3C)n2C)cc1OC,-9.9,-4.9,.,0.8,-0.9,27.2,-14.6,i,
CC1(OC(=O)CCc2ccccc2)C(=O)C=C2C=C(c3ccc(C#N)cc3)N(C(CO)CO)C=C2C1=O (configuration not stated),-0.1,45.4,-11.4,-2.0,4.9,26.4,-2.6,i,
CCc1ccc2[nH]c(=O)c(CN(CCCO)C(=O)NCc3ccccc3)cc2c1,-5.1,13.7,-121.1,-5.2,-4.7,0.0,-11.1,i,
CC1CCC2(CC1)NC(=O)N(CC(=O)NCCc1ccc(F)cc1)C2=O (configuration not stated),.,.,6.7,0.8,4.7,.,-6.9,.,
CSc1ccc(CNC(=O)C2Cc3cc(S(=O)(=O)N4CCCC4)ccc3N2C(C)=O)cc1 (configuration not stated),-3.2,-8.7,1.2,-0.3,4.4,9.0,-7.8,i,
Cc1cc(NC(=O)CCC(=O)N(c2ccccc2)C(C(=O)NCC2CCCO2)c2cccnc2)no1 (configuration not stated),-2.8,8.2,-57.2,-3.0,-0.5,6.9,-16.9,i,
O=C(c1ccccc1)c1cc2ccccc2oc1=O,-3.4,0.6,-25.9,-0.4,2.1,14.4,27.8,i,
CC1(C)CC(=O)C(C=NCCN2CCN(C3CC(=O)N(c4cccc(Br)c4)C3=O)CC2)=C(O)C1 (configuration not stated),-12.6,-4.7,-1.6,-1.2,-0.5,-7.8,-10.8,i,
O=C(c1ccc(Cl)c(Cl)c1)N1CCN(c2ccccn2)CC1,-9.0,6.9,-16.7,0.3,-0.2,1.2,-0.2,i,
CN(C)c1ccc(N=Cc2nc(-c3ccccc3)oc2OC(=O)c2ccccc2)cc1,18.8,-6.7,-88.8,1.8,3.7,-2.9,.,i,
CCN(CC(=O)NC1CCS(=O)(=O)C1)S(=O)(=O)c1ccc(C)c(C)c1 (configuration not stated),-14.6,4.8,.,2.2,-0.2,15.8,-12.1,i,
CCn1c(/C(C#N)=N/O)nc2ccccc21,1.3,-7.0,8.2,3.3,6.3,-8.5,.,i,
CC(O)CCC(=O)NNC(=S)Nc1ccccc1 (configuration not stated),-14.6,-3.9,-3.5,2.0,-1.9,2.3,-24.6,i,
O=C(C1CCN(S(=O)(=O)c2ccc(Br)s2)CC1)N1CCN(c2ccccc2)CC1,-4.4,-13.0,8.5,-5.0,-1.1,-4.3,2.1,i,
COc1ccc(N2CCCC2=O)cc1S(=O)(=O)N1CCOCC1,.,.,2.8,2.2,2.7,.,-8.9,.,
O=C(O)c1cccc(S(=O)(=O)Nc2ccc(S(=O)(=O)N3CCOCC3)cc2)c1,-11.4,-4.0,13.7,3.2,0.4,4.0,-10.9,i,
CCc1cccc(C)c1NC(=O)C1CC=CCC1C(=O)O (configuration not stated),-0.5,10.6,-22.1,-3.4,2.7,18.2,.,i,
Cn1cc(Cl)c(C(=O)OCC(=O)Nc2ccc(S(N)(=O)=O)cc2)n1,.,-10.2,-4.6,3.4,4.1,-2.2,-15.0,i,
NC(=O)NC(Cc1ccccc1)C(=O)NCCCSc1ccccc1 (configuration not stated),3.3,76.5,-4.3,-2.1,0.4,-6.0,45.4,i,eIF4H inh retest=5.4;PABP FP inh retest=8.2
CCOc1ccc(Cn2c(=O)oc3ccc(C)cc32)cc1OC,-9.8,2.7,17.0,-1.9,-11.3,-6.3,-24.1,i,
CCCCn1c(=NC(C)=O)c(C#N)cc2c(=O)n3cccc(C)c3nc21,-5.7,.,-78.7,-2.2,1.1,.,-1.1,i,
CCc1cccc(NC(=O)CCS(=O)(=O)c2cccc3nonc23)c1,-4.0,2.3,-13.2,-5.2,-2.9,1.8,-8.7,i,
O=C(Nc1ccc(O)cc1)c1ccc2c(c1)C(=O)N(N1C(=O)c3ccccc3C1=O)C2=O,-5.7,-13.8,2.3,-0.6,2.8,-7.1,-17.5,.,
c1nc(NCCN2CCOCC2)c2sc3nc(N4CCOCC4)c4c(c3c2n1)CCC4,13.0,-9.9,.,3.5,-2.7,9.9,-8.6,i,
NS(=O)(=O)c1ccc(NC(=S)NC2CCCCCC2)cc1,-3.1,3.8,4.4,1.5,4.1,-2.6,.,i,
